Screening data as filed in PubChem.
RE007 growth inh: less growth of the S. pombe RE007 Vpr strain | S. pombe RE007 Vpr strain, BacTiter-Glo ATP luminescence, 24 h; control for the full effect not named in the record | Potency, µM (doses to about 92.2 µM), for inactives: top-dose activity change, negative = less growth | AID 651644 | 0.21% of 360,000 active; active = well fitted falling curve with a large enough effect; inconclusive = small, poorly fitted or top-dose-only effect; inactive = no such curve, though single readings can be large or run the other way;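 note: nearly all actives have a fitted effect of over 50% in size; the assay follows cell death caused by Vpr and the record does not say whether a fall means rescue or toxicity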
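Fission yeast RE007 carrying one integrated HIV-1 vpr copy, seeded at OD 0.01 in PMG+AL medium with 23 nL pinned compound. Grown 24 h at 30 degrees; viability read by BacTiter-Glo luminescence after 5 min.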
StopGo reporter: FMDV 2A StopGo reporter, luciferase signal; human cells with a luciferase reporter of 2A StopGo recoding; control for the full effect not named in the record; Potency, µM (titrated, usually from 57.9 µM), for the others: at the highest dose signal change, negative = less light; 1.2% of 410,000 active; active = well fitted falling curve with a large enough effect; inconclusive = small, poorly fitted or top-dose-only effect; inactive = no such curve, though single readings can be large or run the other way; tested in HEK293T cells; note: nearly all actives have a fitted effect of over 45% in size; luciferase light after 4 h
* = called active by the depositor; ? = inconclusive; [ ] = dose if it differs, or a comment. % is set by controls: 0 for no effect and ±100 for the full control effect; potency is the fitted concentration of half-maximal effect. The list is partial. The share of hits here may be higher or lower than overall.

The line under a structure holds: RE007 growth inh, StopGo reporter
- O=C1OCCC1=COCCCCCOC=C1CCOC1=O
 : 6%, -11%
- COc1ccc(OC(=O)N(C)C[C@@H]2OCc3cnnn3CCCC(=O)N([C@@H](C)CO)C[C@H]2C)cc1
 : -8%, -7%
- CN(Cc1ccco1)C(=O)CC[C@H]1O[C@@H](n2ccc(=O)[nH]c2=O)[C@H](O)[C@@H]1O
 : 0%, -12%
- CCCCCCN1C[C@H](O)[C@@H](n2cc(C3CC3)nn2)C[C@@H]1c1ccccc1
 : -11%, -14%
- Cc1ccccc1-c1cc2nc(Oc3cccc4ccccc34)n(C)c(=O)c2s1
 : 3%[18.4 µM], 24%
- C[C@H](O)[C@@H]1C(=O)N2CCc3ccc(-c4ccccc4)cc3[C@@H]2C[C@@H]1N(C)C(=O)c1ccco1
 : -2%, ?
- CCOC(=O)C(=O)N(C)c1c(CC)nc2c(OCc3ccc(Cl)cc3)cccn12
 : -8%[18.4 µM], -2%
- COC(=O)[C@]12CCCCC=C1N(CCc1ccc(OC)c(OC)c1)C(=O)[C@H](CC(=O)N1CCSCC1)C2
 : 1%, -12%
- COc1ccc(C2=NOC(C)(c3nnc(-c4ccncc4)o3)C2)cc1 (stereo not drawn)
 : -8%, -2%
- O=C(O)CNc1nc(NCc2ccc(Cl)cc2)ccc1[N+](=O)[O-]
 : 16%, -3%
- CCOc1ccc(CCN2C(=O)C(=O)N([C@@H](CC(C)C)CN3CCC[C@H]3CN3C(=O)C(=O)NC[C@@H]3CC(C)C)C[C@@H]2Cc2ccccc2)cc1
 : -1%, 35%[activator]
- CC(O)(c1ccccc1)c1nc(-c2cccc(C#N)c2)cs1 (stereo not drawn)
 : 2%, -26%
- C[C@@H]1CN(Cc2nnnn2CC(=O)NCCCn2cccn2)C[C@H](C)O1
 : 11%, -7%
- CN(CCc1ccccc1)C(=O)c1ccc(NC(=O)Cc2ccc(NC(=O)C3CCN(C(=O)C4CC4)CC3)cc2)cc1
 : -3%, -11%
- O=C(OCc1ccccc1)N1CCC2CC1c1cc(N3CCN(S(=O)(=O)c4cccc5ccccc45)CC3)ccc12 (stereo not drawn)
 : 6%, -2%

The line under a structure holds: RE007 growth inh, StopGo reporter
- CC1(C(=O)Nc2ccccc2Br)CCN1C(=O)Cc1ccccc1Cl (stereo not drawn)
 : -12%, 0%
- COc1ccc(S(=O)(=O)NC(=O)C2(C)CCN2C(=O)Cc2cc(F)ccc2F)cc1 (stereo not drawn)
 : -1%[18.4 µM], -18%
- COc1ccc(-c2cc(C(=O)NCc3cccc(Cl)c3)[nH]n2)c(C)c1
 : -9%[18.4 µM], 5%
- O=C1NC[C@H](CCCCN2CCN(CC3CCCCC3)C(=O)C2=O)N(CC2CCCCC2)C1=O
 : -17%, -19%
- CC1=CC(c2ccccc2)n2ncnc2N1 (stereo not drawn)
 : 4%, -8%
- C[C@@H]1CN([C@@H](C)CO)C(=O)c2cc(NC(=O)c3ccccc3)ccc2O[C@@H](C)CCCCO[C@@H]1CN(C)S(=O)(=O)c1ccc(F)cc1
 : 11%, -17%
- O=C1CCC(=O)N1CCC(=O)N(C(=O)NC1CCCCC1)C1CCCCC1
 : 6%, -10%
- Cc1cccc(C)c1-n1nnnc1C1(C)CCC(=O)N1Cc1cccc(C(F)(F)F)c1 (stereo not drawn)
 : 3%, -13%
- CC1(C(=O)NS(=O)(=O)c2cccc(OC(F)F)c2)CCN1C(=O)Cc1cccs1 (stereo not drawn)
 : 2%[18.4 µM], -5%
- CN(C)c1ccc(-c2[nH][nH]c(=O)c2NC(=O)c2ccccn2)cc1
 : 8%, 1%
- CCOC(=O)[C@]12Cc3cc(C)ccc3[C@H]1N(C1CCCCC1)C(=O)c1ccccc12
 : ?, 7.9µM*
- COC1CC(=O)C2OC(c3ccccc3)OCC2O1 (stereo not drawn)
 : 17%, 3%
- CCOC(=O)C1=CC[C@@H](c2ccccc2)N(S(=O)(=O)c2ccc(C)cc2)[C@H]1c1ccc(CC)cc1
 : -1%, -16%
- CC(C)CC(N)c1csc(Nc2ccccn2)n1 (stereo not drawn)
 : 13%[18.4 µM], 17%
- CCCCN(C)c1c(C)nc2ccc(C(=O)N(CC)CCN(C)C)cn12
 : -6%, -11%

The line under a structure holds: RE007 growth inh, StopGo reporter
- O=[N+]([O-])c1cccc(COc2ccccc2CN2CCCC2)c1
 : -18%, -22%
- C[C@@H]1CN([C@H](C)CO)C(=O)c2c(c3ccccc3n2C)-c2ccccc2CO[C@@H]1CN(C)C(=O)Nc1ccccc1C(F)(F)F
 : -27%, -28%
- Cc1cc2nc(-c3cccc(Br)c3)c(Cc3ccccc3)n2c(C)c1Br
 : -17%, 17%
- CN(C)S(=O)(=O)c1ccc(Cl)c(NC(=O)COC(=O)CNS(=O)(=O)c2c(F)cccc2F)c1
 : 9%, 8%
- COc1ccc(NC(=O)C2(C)CCN2C(=O)C(C)C)cc1F (stereo not drawn)
 : 14%, -3%
- COCCNC(=O)c1cc2c(c(-c3cccc(-c4cc5ccccc5o4)c3)n1)[C@H](CCO)N(S(=O)C(C)(C)C)C2 (stereo partly drawn)
 : 5%, -15%
- COc1ccc(CN2C(=O)C(CC(=O)NC3CC3)CC(C(=O)N3CCOCC3)=C2C)cc1 (stereo not drawn)
 : 7%, 0%
- CN(C)c1ccc(C=NN2C(=O)CSC2=S)c(Cl)c1
 : -10%, -7%
- C[C@@H]1CN([C@@H](C)CO)S(=O)(=O)c2ccc(Br)cc2O[C@H]1CN(C)C(=O)c1ccccc1
 : 53%, -12%
- O=C(Nc1c(-c2ccc3c(c2)OCO3)[nH][nH]c1=O)c1ccccc1
 : -1%, -16%
- CCc1nc2ccc(C(=O)NCCCN3CCCC3=O)cn2c1N(C)CCC(C)C
 : -2%, -5%
- CC(C)c1ccc(CNc2nc(NCC3CC3)nc3ccsc23)cc1
 : 22%, ?
- Cc1cn(CC(=O)NCCN2CCOCC2)c(=O)[nH]c1=O
 : 16%, -11%
- COC(=O)c1ccc(Cn2c(C)c(C(=O)NCc3ccc([N+](=O)[O-])cc3)sc2=O)o1
 : -3%[18.4 µM], -24%
- O=C(Cn1sc2ccccc2c1=O)Nc1ccc(F)cc1
 : -44%, -13%

The line under a structure holds: RE007 growth inh, StopGo reporter
- C[C@H]1CN([C@@H](C)CO)S(=O)(=O)c2ccc(Br)cc2O[C@@H]1CN(C)C(=O)CCN1CCCCC1
 : -10%, -23%
- CC(=O)Nc1cccc(C(=O)Nc2cc(C(F)(F)F)ccc2-n2cncn2)c1
 : -5%, -9%
- O=C(NCc1ccccc1Cl)c1csc([C@@H]2O[C@H](CO)[C@H](O)[C@H](O)[C@H]2O)n1
 : 0%, -18%
- CO[C@@H]1CN(C)C(=O)c2cc(NC(=O)Nc3cc(F)ccc3F)ccc2OC[C@H](C)N(C(=O)c2ccccn2)C[C@@H]1C
 : 6%, -22%
- c1cc(N2CCOCC2)ccc1-c1ccc2nncn2c1
 : 16%, ?
- COc1ccccc1N1CCN(Cc2cc(=O)oc3cc(C)cc(C)c23)CC1
 : 7%, -28%
- C[C@@H]1Cn2cnc(C(=O)N[C@@H](Cc3c[nH]c4ccccc34)C(=O)OC(C)(C)C)c2C(=O)N1
 : -9%, -18%
- CCCCn1nnnc1C(c1ccccc1)N1CCc2ccccc2C1 (stereo not drawn)
 : -3%, 6%
- CCN1C[C@@H]2[C@@H]3C(=O)N(C)C(=O)[C@@H]3[C@](Cc3ccccc3)(C1=O)N2C(=O)c1ccc(C(C)(C)C)cc1
 : 18%, -12%
- O=[N+]([O-])c1ccc(COc2cccc(CN3CCCCC3)c2)cc1
 : -18%, -13%
- Cc1nc2c(OCCC3CCCCC3)cccn2c1N(C)C(=O)CCC1CCCC1
 : -2%[18.4 µM], -28%
- COc1ccc(S(=O)(=O)N(C)C)cc1NC(=O)c1ccc(OCC2CCCO2)cc1 (stereo not drawn)
 : -8%, -1%
- CCOC(=O)C1(C)CCN1C(=O)c1ccccc1OC (stereo not drawn)
 : 1%[18.4 µM], -17%
- COc1ccc(-c2nc3c4ccccc4ccn3c2Cc2cccc(F)c2)cc1OC
 : ?, 21%
- O=C1NC[C@H](CCCCN2C[C@H](Cc3ccc(O)cc3)N(CCC3CCCCC3)C(=O)C2=O)N(CCc2ccc(O)cc2)C1=O
 : 7%, -15%

Some of the entries so far, field by field.
canonical_smiles: Cc1cccc(C)c1-n1nnnc1C1(C)CCC(=O)N1Cc1cccc(C(F)(F)F)c1 (stereo not drawn)
  RE007 growth inh: 3% | StopGo reporter: -13%

canonical_smiles: CC1(C(=O)NS(=O)(=O)c2cccc(OC(F)F)c2)CCN1C(=O)Cc1cccs1 (stereo not drawn)
  RE007 growth inh: 2%[18.4 µM] | StopGo reporter: -5%

canonical_smiles: CN(C)c1ccc(-c2[nH][nH]c(=O)c2NC(=O)c2ccccn2)cc1
  RE007 growth inh: 8% | StopGo reporter: 1%

canonical_smiles: CCOC(=O)[C@]12Cc3cc(C)ccc3[C@H]1N(C1CCCCC1)C(=O)c1ccccc12
  RE007 growth inh: ? | StopGo reporter: 7.9µM*

Other entries
The line under a structure holds: RE007 growth inh, StopGo reporter
- COc1cc(-c2ccc3oc(-c4ccsc4)c(C#CC4(O)CCCCC4)c3c2)cc(OC)c1OC
 : 23%, -16%
- C/C(CC(=O)Nc1c(Cl)cccc1C(F)(F)F)=N\NC(=O)c1cnccn1
 : 12%, -16%
- C[C@H]1CN([C@@H](C)CO)C(=O)CCCn2cc(nn2)CO[C@@H]1CN(C)S(=O)(=O)c1ccc(C#N)cc1
 : -6%, ?
- COCCNC(=O)c1cc(S(=O)(=O)N(C)C2CCCCC2)ccc1Cl
 : 8%, -14%
- O=C(NCc1ccccn1)c1ccccc1OCc1ccccc1Cl
 : 19%, -4%
- O=[N+]([O-])c1cccc(COc2ccc(CN3CCCC3)cc2)c1
 : -24%, 13%
- COc1ccc(-c2cc(NC=O)c3ncc(-c4ccc(C(C)=O)cc4)n3c2)cn1
 : 2%, ?
- CCCCN(C=O)c1c(CC)nc2ccc(C(=O)N(C)Cc3ccccc3)cn12
 : -13%, 20%
- CCCCN(C=O)c1c(CC)nc2ccc(C(=O)NCc3ccccc3OC)cn12
 : 5%, -13%
- CC(=O)Nc1c(I)c(C(=O)N[C@H]2C(O)O[C@H](CO)[C@@H](O)[C@@H]2O)c(I)c(N(C)C(C)=O)c1I (stereo partly drawn)
 : -11%[18.4 µM], -18%
- NC(Cc1ccc(C(F)(F)F)cc1)c1csc(NC(=O)Nc2ccccc2Cl)n1 (stereo not drawn)
 : 6%[18.4 µM], -8%
- O=C(Nc1nnc([C@H]2C[C@H](O)[C@@H](CO)O2)s1)Nc1cccc2c1CCCC2
 : -1%, -6%
- CCCCCc1c(-c2ccccc2F)ncn1CCc1ccccc1OC
 : -18%, 32µM*
- Cc1ccc(C(=O)CCC(=O)OCC(=O)Nc2cc(S(=O)(=O)N(C)C)ccc2C)cc1
 : -11%, -9%
- COC(=O)[C@@]12C[C@@H](CC(=O)N3CCN(C(=O)c4ccco4)CC3)C(=O)N(Cc3cccc4ccccc34)C1=CCC(C)(C)C2
 : 14%, -26%

Two entries drawn at random from the list so far:
The line under a structure holds: RE007 growth inh, StopGo reporter
- CN(C)S(=O)(=O)c1ccc(Cl)c(NC(=O)COC(=O)CNS(=O)(=O)c2c(F)cccc2F)c1
 : 9%, 8%
- O=C1CCC(=O)N1CCC(=O)N(C(=O)NC1CCCCC1)C1CCCCC1
 : 6%, -10%

(listing goes on)
The line under a structure holds: RE007 growth inh, StopGo reporter
- CCOC(=O)c1cnc2cc(-c3ccc(C)cc3)nn2c1C
 : -16%, 48%[activator]
- Cn1cccc1CN1CCC[C@]2(N[C@H](c3ccc(C(F)(F)F)cc3)[C@@H]3C(=O)N(Cc4ccccc4)C(=O)[C@@H]32)C1=O
 : 9%, -9%
- Cc1ccc(NC(=O)CCCN2C(=O)C(c3ccccc3)Oc3cccnc32)c(C)c1 (stereo not drawn)
 : 6%, -12%
- COCCNC(=O)C1CCCN(C(=O)c2cncc(Br)c2)CC1 (stereo not drawn)
 : -4%, -11%
- CC(=O)c1ccccc1C(=O)N1CCC(CCC(=O)NCc2ccc(F)cc2)CC1
 : 1%, -24%
- COc1cc(C=NNc2ccccc2)ccc1OC(=O)c1ccccc1
 : 35%, 65%[activator]
- Cn1c(-c2ccccc2)c(Sc2ccccc2)c2cc(-c3ccc4[nH]ccc4c3)ccc21
 : 3%, -12%
- O=C(NCc1ccccc1)c1cc(C2COCCN2C(=O)c2cccs2)on1 (stereo not drawn)
 : 2%[18.4 µM], -4%
- CCC1OC(C)Cc2[nH][nH]c(=O)c21 (stereo not drawn)
 : 9%, -15%
- CC(C)c1cc(C(=O)OCC(=O)NC2CC2)c(O)c(C(C)C)c1
 : 3%, -28%
- C=C1C(=O)[C@]23C[C@H]1CCC2[C@@]1(C)C(C[C@@H]3O)[C@](C)(C(=O)OC)CC[C@@H]1OC(C)=O (stereo partly drawn)
 : ?, 8.9µM*
- CCN(CC)CCN=c1c(C)nc(C#N)c(N)n1O
 : -8%, -9%
- COCC(=O)N1CCC(c2nc3ccccc3[nH]2)CC1
 : -16%, ?
- COC(=O)c1cc2c(ccc3ccccc32)oc1=O
 : -13%, 9%
- Cc1c(/C(O)=C2\C(=O)C(=O)N(CCCN(C)C)C2c2cccs2)cnn1-c1ccccc1 (stereo not drawn)
 : 6%, -1%
- Cc1ccc(Cl)c(NC(=O)CN2C(=O)C(C)N(c3ccc(F)cc3)C2=O)c1Cl (stereo not drawn)
 : -2%, -22%
- COc1ccc(C=C(C(=O)c2ccccc2)c2ccccc2)cc1
 : 5%[18.4 µM], -5%
